gsp ag – qHTS for Agonist of gsp, the Etiologic Mutation Responsible for Fibrous Dysplasia/McCune-Albright Syndrome: qHTS; gsp mutant cells, cAMP HTRF, 30 min; control for the full effect not named in the record; Potency, µM (titrated, usually from 76.9 µM), without a hit: at the top dose activation (cAMP increase), actives largely listed as activators; hit rate 0.13% among 340,000; active = well fitted activation curve with a large enough effect; inconclusive = small, poorly fitted or top-dose-only effect, or another doubt; inactive = no such curve, though single readings can be large or run the other way; cell line not stated here;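 note: phosphodiesterase inhibitor Ro 20-1724 added with compounds to block cAMP breakdown; potency is the fitted concentration of half-maximal effect; nearly all actives have a fitted effect of over 60% in size; about a fifth of the inactives were tested at one dose only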
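Cells stably selected in G418 were plated at 2000/well, grown 16-24 hr, then given compounds in DMSO with the PDE inhibitor […] (300 uM solution added) for 30 min at 37C; cAMP was read by HTRF.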
gsp antagonist – qHTS for Antagonists of gsp, the Etiologic Mutation Responsible for Fibrous Dysplasia/McCune-Albright Syndrome: qHTS; Potency, µM (highest dose often 76.9 µM), without a hit: at the highest dose activity change, negative = inhibition, most hits filed as inhibitors; gsp-mutant cells, cAMP HTRF, 30 min; control for the full effect not named in the record; hit rate 0.4% among 340,000; active = falling curve of any shape with a large fitted effect; inconclusive = falling curve, mostly with a smaller effect; inactive = flat or rising curve; cell line not stated here;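 note: intracellular cAMP measured with PDE inhibitor Ro 20-1724 present during compound exposure; potency is the fitted concentration of half-maximal effect; % is set by controls: 0 for no effect and ±100 for the full control effect; nearly all actives have a fitted effect of over 65% in size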
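Cells in G418 medium, seeded 16-24 h, 37C; buffer exchange to DPBS + 1 mM CaCl2, 0.5 mM MgCl2, 0.05% BSA; cpds in DMSO + […] (300 uM stock), 30 min 37C; HTRF cAMP detection.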
Menin MLL FP FL – qHTS Assay for Inhibitors Targeting the Menin-MLL Interaction in MLL Related Leukemias: Competition With Fluorescein Labeled MLL-derived Peptide. Fluorescence polarization, fluorescein-MLL peptide displacement from menin. FP activity change, % at 61.4 µM. 290,000 tested, under 10 active. AID 1766, 2009; inconclusive = falling polarisation curve, or a change in total fluorescence; inactive = total fluorescence flat and polarisation flat or rising; no compound was filed as active; the % refers to the polarisation; negative = inhibition;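 note: % of control where 0% means no effect; inhibitors lower the polarisation; unlabelled MLL peptide was the positive control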
PINK1 expr mod – A Quantitative High throughput Screen to Identify Chemical Modulators of PINK1 Expression; hit rate 0.2% among 410,000; PINK1 immunofluorescence, high-content cytometry, 24 h; AID 624263, 2012; Potency, µM (doses to about 76.6 µM), inactives show at the top dose activation (PINK1 increase), hits mostly activators; active = well fitted activation curve with a large enough effect; inconclusive = small, poorly fitted or top-dose-only effect; inactive = flat fitted curve, though single readings scatter; cell line not stated here;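 note: potency is the fitted concentration of half-maximal effect; % of control where 0% means no effect; nearly all actives have a fitted effect of over 65% in size; a mitochondrial uncoupler was the plate control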
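Cells are seeded, rested 12 hours, then given compound at five concentrations or DMSO for 24 hours. After fixation, blocking and antibody staining, PINK1 amount and mitochondrial localization are scored; CCCP serves as control.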
D2 agonist – Beta-Arrestin HTS for Positive Allosteric Modulators of the Human D2 Dopamine Receptor: Agonists | DiscoveRx PathHunter D2 beta-arrestin, luminescence, 90 min; 100% = 57 uM dopamine signal | hit rate 0.084% among 360,000 | D(2) dopamine receptor (Homo sapiens), P14416 | activation, % (no concentration beside the values) | AID 624465, 2012; in the data active = activation above about 40%; inconclusive = about 15% to 40%; inactive = below about 15%; note: compound concentration not given in the record; the text of the record calls up to 30% inactive
Target sequence (P14416 whole entry, looked up): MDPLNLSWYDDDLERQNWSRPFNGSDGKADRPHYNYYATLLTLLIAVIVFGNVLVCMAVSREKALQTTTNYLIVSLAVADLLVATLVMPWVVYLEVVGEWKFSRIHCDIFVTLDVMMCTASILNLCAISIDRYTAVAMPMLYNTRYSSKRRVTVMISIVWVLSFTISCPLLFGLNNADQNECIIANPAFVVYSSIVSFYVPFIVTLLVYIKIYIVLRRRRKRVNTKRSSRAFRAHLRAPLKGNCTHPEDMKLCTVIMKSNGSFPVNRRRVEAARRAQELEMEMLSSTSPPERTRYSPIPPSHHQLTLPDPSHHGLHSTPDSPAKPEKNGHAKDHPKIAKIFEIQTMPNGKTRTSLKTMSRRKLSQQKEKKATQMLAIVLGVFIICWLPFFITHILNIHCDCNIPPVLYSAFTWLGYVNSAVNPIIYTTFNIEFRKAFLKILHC
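Agonist mode: compounds alone added to overnight-plated D2 PathHunter cells for 90 min at 37 C, with 57 uM final dopamine (EC100) defining full response. Beta-arrestin recruitment detected by chemiluminescent reagent, read after 1 h at ambient temperature.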
Sfp PPTase inh – qHTS Assay for Inhibitors of Bacillus subtilis Sfp phosphopantetheinyl transferase (PPTase); Biochemical Sfp PPTase activity, qHTS; Potency, µM, for inactives: max response, negative = inhibition, hits mostly inhibitors; hit rate 3.5% among 310,000; active = well fitted inhibition curve with a large enough effect; inconclusive = small, poorly fitted or top-dose-only effect, or another doubt; inactive = no such curve, though single readings can be large or run the other way;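 note: the enzyme is Sfp with the accession as filed and its product quenches rhodamine fluorescence; potency is the fitted concentration of half-maximal effect; 0% = enzyme reaction without inhibitor and -100% = no enzyme wells; top concentration of the series not given in the record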
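Buffer: 50 mM Hepes-Na pH 7.6, 10 mM MgCl2, 0.01% Nonidet P-40, 0.01% BSA. Enzyme 15 nM, pre-exposed to compound 15 min; substrates then added and fluorescence change tracked over 30 min.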
ClpP mod – qHTS Assay for Activators of ClpP. ATP-dependent Clp protease proteolytic subunit (Bacillus subtilis (strain 168)), P80244. purified B. subtilis ClpP, FRET peptide cleavage, 20 min. Potency, µM (doses to about 57.5 µM), for the others: at the top dose activity change, negative = active. hit rate 1.9% among 340,000. AID 651965, 2013; active = well fitted falling curve with a large enough effect; inconclusive = small, poorly fitted or top-dose-only effect; inactive = no such curve, though single readings can be large or run the other way; note: potency is the fitted concentration of half-maximal effect; the source files actives as falling curves though it sought activators and does not explain the sign; nearly all actives have a fitted effect of over 65% in size; many hits overshoot -100%
Target sequence (P80244 whole entry, looked up): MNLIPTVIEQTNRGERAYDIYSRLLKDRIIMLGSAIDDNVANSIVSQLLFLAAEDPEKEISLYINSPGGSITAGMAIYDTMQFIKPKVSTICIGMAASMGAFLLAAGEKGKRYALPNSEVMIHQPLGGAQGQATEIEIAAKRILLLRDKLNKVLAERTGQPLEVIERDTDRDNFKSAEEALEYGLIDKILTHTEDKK
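Buffer: 100 mM Tris/HCl pH8, 100 mM KCl, 0.05% low protease BSA, 2.5% glycerol, 0.01% Tween-20. ClpP 10 microg/mL final; 20 min RT; delta FRET normalized to ADEP and DMSO controls.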
Numbers without * were called inactive; [ ] = another dose, or the depositor's remark.

For COc1ccc(-c2cc3nc(C)cc(N4CC(C)CC(C)C4)n3n2)cc1 (stereo unspecified) the results were gsp ag -33%[inhibitor], gsp antagonist inconclusive, Menin MLL FP FL 1.8, PINK1 expr mod 0.6%, D2 agonist -0.6, Sfp PPTase inh inconclusive and ClpP mod 40µM*.
Screening CSc1nnc(C)c(=O)n1COC(=O)COc1ccc2ccccc2c1 returned gsp ag -4%, gsp antagonist 1%, Menin MLL FP FL 3.3, PINK1 expr mod -1.8%, D2 agonist -0.4, Sfp PPTase inh 11% and ClpP mod 4.8%.
For CC(C)NC(=O)N(C)C[C@H]1OCCCC[C@H](C)Oc2ccc(NC(=O)NC3CCCCC3)cc2C(=O)N([C@H](C)CO)C[C@@H]1C the results were gsp ag inconclusive, PINK1 expr mod 2.9%, D2 agonist -8.4 and ClpP mod -10%.
For CN(CC(=O)Nc1ccc(C#N)cc1)Cc1ccc(Cl)cc1Cl the results were gsp ag 12%, gsp antagonist -20%, Menin MLL FP FL -1.4, PINK1 expr mod -0.5%, D2 agonist -1.4, Sfp PPTase inh -2% and ClpP mod 3.7%.
For C=Cc1cccc(NC(=O)COc2ccccc2)c1 the results were gsp ag inconclusive, gsp antagonist 0%, Menin MLL FP FL 0.8, PINK1 expr mod -0.4%, D2 agonist -0.3, Sfp PPTase inh -6% and ClpP mod 1.4%.
CNC[C@@H]1OCc2ccccc2-c2ccccc2C(=O)N([C@@H](C)CO)C[C@@H]1C was read as gsp ag -26%, PINK1 expr mod -0.4%, D2 agonist -8.1 and ClpP mod -3.0%.
`COc1ccc(N(Cc2ccc(N(C)C)cc2)C(=O)c2ccc(S(C)(=O)=O)cc2)cc1` gave gsp ag -28%, gsp antagonist -7%, Menin MLL FP FL 2.0, PINK1 expr mod 0.2%, D2 agonist -1.6, Sfp PPTase inh 8% and ClpP mod -1.1%.
`COc1ccc(NC(=O)c2cc(C(=O)Nc3ccc(OC)cc3OC)cc([N+](=O)[O-])c2)c(OC)c1` gave gsp ag -12%, gsp antagonist -8%, Menin MLL FP FL 2.5, PINK1 expr mod 8.2%, D2 agonist -1.0, Sfp PPTase inh 4% and ClpP mod -1.7%.
Screening Nc1nc(SCC(=O)Nc2ccc(OC(F)(F)F)cc2)[nH]c(=O)c1NC(=O)c1ccc(Br)o1 returned gsp ag 4%[15.4 µM], gsp antagonist 6%, PINK1 expr mod 2.4%, D2 agonist -3.5, Sfp PPTase inh -11% and ClpP mod -1.2%.
Cc1ccc2cccc(S(=O)(=O)N3CCN(c4ccccc4F)CC3)c2n1 was read as gsp ag 26%, gsp antagonist -16%, Menin MLL FP FL 12, PINK1 expr mod 14%[38.3 µM], D2 agonist 1.5, Sfp PPTase inh inconclusive and ClpP mod 1.1%.
`CC(c1ccco1)N(Cc1ccco1)C(=O)Nc1ccccc1` (stereo unspecified) gave gsp ag -57%[inhibitor], gsp antagonist 3%, Menin MLL FP FL -2.0, PINK1 expr mod -3.2%[38.3 µM], D2 agonist -1.0, Sfp PPTase inh 9% and ClpP mod 0.4%.
CCOc1cc(CNCc2ccccn2)ccc1OCC(=O)NC(C)(C)C was read as gsp ag -27%, gsp antagonist -11%, Menin MLL FP FL 4.1, PINK1 expr mod -1.0%, D2 agonist 4.3, Sfp PPTase inh -6% and ClpP mod 2.4%.
Screening CCc1ccccc1NC(=O)C1CCCN(c2nn3c(=O)cc(C)nc3s2)C1 (stereo unspecified) returned gsp ag 13%, gsp antagonist -5%, Menin MLL FP FL 12, PINK1 expr mod 2.5%, D2 agonist -1.9, Sfp PPTase inh 18% and ClpP mod -0.4%.
`CCCC(C)NC(=O)c1sc2nc3n(c(=O)c2c1C)CCC3` (stereo unspecified) gave gsp ag 1%, gsp antagonist 3%, Menin MLL FP FL 1.9, PINK1 expr mod -1.1%, D2 agonist 3.2, Sfp PPTase inh 19% and ClpP mod -9.1%.
`COc1ccc(NC(=O)CN2C(=O)CSC(C)C2=O)c(OC)c1` (stereo unspecified) gave gsp ag -26%, gsp antagonist 3%, Menin MLL FP FL -0.7, PINK1 expr mod -1.3%, D2 agonist 0.7, Sfp PPTase inh 2% and ClpP mod -1.7%.
Screening O=C(CCCn1cnc([N+](=O)[O-])n1)Nc1cc(Cl)ccc1O returned gsp ag -20%, gsp antagonist 11%, Menin MLL FP FL -0.8, PINK1 expr mod 0.6%, D2 agonist 1.6 and Sfp PPTase inh 9%.
Screening C=CCNC(=S)NNC(=O)c1ccc([N+](=O)[O-])cc1 returned gsp ag -19%[15.4 µM], gsp antagonist 0%, Menin MLL FP FL 1.1, PINK1 expr mod 0.1%, D2 agonist -10 and Sfp PPTase inh 23%.
Screening COc1cc(NS(=O)(=O)c2ccccc2)ccc1-n1nc(C)cc1C returned gsp ag -5%, gsp antagonist -1%, Menin MLL FP FL 0.4, PINK1 expr mod 0.5%[38.3 µM], D2 agonist 1.8, Sfp PPTase inh 13% and ClpP mod 1.0%.
Screening CCC(=O)N1c2ccc(S(=O)(=O)NCc3ccco3)cc2CC1C (stereo unspecified) returned gsp ag 7%, gsp antagonist 7%, Menin MLL FP FL -2.5, PINK1 expr mod 0.1%, D2 agonist 4.6, Sfp PPTase inh -4% and ClpP mod -2.0%.
For Cc1ccc2cc(C(c3nnnn3Cc3ccccc3)N3CCN(c4ccccc4)CC3)c(=O)[nH]c2c1 (stereo unspecified) the results were gsp ag 11%, gsp antagonist -10%, Menin MLL FP FL 1.2, PINK1 expr mod -1.5%[38.3 µM], D2 agonist -1.3, Sfp PPTase inh inconclusive and ClpP mod -17%.
`O=C1C(CO)C(CO)C(CO)C1CO` (stereo unspecified) gave gsp ag 22%, gsp antagonist 5%, PINK1 expr mod -1.5% and D2 agonist -7.3.
For CCCNC(=O)N1CCC(C(=O)c2ccc(Cl)cc2)CC1 the results were gsp ag -27%, gsp antagonist -4%, Menin MLL FP FL 3.9, PINK1 expr mod -3.9%, D2 agonist -0.8, Sfp PPTase inh -3% and ClpP mod -3.2%.
CC1Cc2ccccc2N1Cc1ccc([N+](=O)[O-])cc1 (stereo unspecified) was read as gsp ag -10%[15.4 µM], gsp antagonist -10%, Menin MLL FP FL 4.9, PINK1 expr mod 3.6%, D2 agonist -3.9 and Sfp PPTase inh -16%.
`N#Cc1cccc(NC(=O)Cn2c3[n+](c4ccc(C(F)(F)F)cc42)CCCCC3)c1` gave gsp ag -5%, gsp antagonist 7%, Menin MLL FP FL 3.6, PINK1 expr mod 4.6%, D2 agonist -3.9, Sfp PPTase inh -1% and ClpP mod -13%.
`O=C1NCCCC1C(=O)N/N=C/c1ccccc1` (stereo unspecified) gave gsp ag -21%, gsp antagonist -5%, Menin MLL FP FL 4.4, PINK1 expr mod 5.3%[38.3 µM], D2 agonist -2.6, Sfp PPTase inh 14% and ClpP mod -0.8%.
Screening Cc1sc2nc(SCC(=O)N(C)C)[nH]c(=O)c2c1C returned gsp ag 12%, gsp antagonist 5%, Menin MLL FP FL 4.3, PINK1 expr mod 1.0%, D2 agonist -3.9, Sfp PPTase inh 14% and ClpP mod -0.7%.
`C[C@H]1CNC(=O)C(=O)N1C[C@H](Cc1ccc(O)cc1)NC(=O)CC12CC3CC(CC(C3)C1)C2` gave gsp antagonist 2%, Menin MLL FP FL 0.0, PINK1 expr mod 0.0%, D2 agonist -1.8, Sfp PPTase inh 3% and ClpP mod -5.3%.
`CN1OC[C@@H]2CN(C(=O)c3ccco3)[C@H](c3ccc(-c4ccc(C#N)cc4)cc3)C[C@@H]21` gave gsp ag -3%, PINK1 expr mod -0.4%, D2 agonist -9.2 and ClpP mod -18%.
Cc1cc(C)cc(C(=O)OCC(=O)NC(=O)NC2CCCC2)c1 was read as gsp ag -34%[inhibitor], gsp antagonist -9%, PINK1 expr mod 11%, D2 agonist -6.5 and ClpP mod 1.6%.
Screening Cc1ccc2cc3cc(C(=O)NCc4ccc5c(c4)OCO5)oc3nc2c1 returned gsp ag 8%[15.4 µM], gsp antagonist -1%, Menin MLL FP FL -4.0, PINK1 expr mod 5.8%, D2 agonist -1.4, Sfp PPTase inh -6% and ClpP mod 0.6%.
Screening Cc1cc(C)cc(C(O)c2ncc(-c3ccccc3C)[nH]2)c1 (stereo unspecified) returned PINK1 expr mod 4.4%, D2 agonist -2.0 and ClpP mod 0.9%.
For CN1C(=O)N(CC(=O)c2ccc3c(c2)OCO3)C(=O)C12CCCCC2 the results were gsp ag -35%[inhibitor], PINK1 expr mod 1.7%, D2 agonist -1.9 and ClpP mod -8.3%.
For O=C(CN1CCOCC1)Nc1ncc(Cc2cccc(Cl)c2)s1 the results were gsp ag 10%, gsp antagonist -4%, Menin MLL FP FL -1.0, PINK1 expr mod 5.4%, D2 agonist -0.6, Sfp PPTase inh -2% and ClpP mod -1.7%.
`NC(=O)N/N=C1\c2ccccc2-c2c(C(N)=O)cccc21` gave gsp ag 16%, gsp antagonist -16%, Menin MLL FP FL -4.8, PINK1 expr mod 1.0%, D2 agonist 4.1, Sfp PPTase inh 8% and ClpP mod -4.1%.
Screening N[C@@H](CO)c1nnc([C@H](CC(=O)O)NC(=O)C2CCNCC2)o1 returned gsp ag -16%, gsp antagonist 13%, Menin MLL FP FL 6.3, PINK1 expr mod -1.4%, D2 agonist -0.9, Sfp PPTase inh inconclusive and ClpP mod 2.4%.

Screening results deposited in PubChem by National Center for Advancing Translational Sciences (NCATS).

Random draw from the library (roughly 5.1% active in at least one column).
